# Assay outcomes deposited in PubChem by National Center for Advancing Translational Sciences (NCATS).
# TSHR agonist: qHTS Assay for Agonists of the Thyroid Stimulating Hormone Receptor; Thyrotropin receptor (Homo sapiens), P16473; HEK293-CNG-TSHR cells (CNG channel as cAMP sensor), membrane potential dye, cAMP; Potency, µM (top dose mostly 57.1 µM), without a hit: at the highest dose activation, most hits filed as activators; 0.48% of 73,000 active; AID 926, 2007; active = well fitted activation curve of enough size with the parental cells flat; inconclusive = any curve in the parental cells; inactive = parental cells flat and receptor cells flat or falling; further: potency means the concentration at half of the fitted maximal effect; % of control where 0% means no effect; weak receptor curves with flat parental cells got no call and are not listed
# Target sequence (P16473 whole entry, looked up): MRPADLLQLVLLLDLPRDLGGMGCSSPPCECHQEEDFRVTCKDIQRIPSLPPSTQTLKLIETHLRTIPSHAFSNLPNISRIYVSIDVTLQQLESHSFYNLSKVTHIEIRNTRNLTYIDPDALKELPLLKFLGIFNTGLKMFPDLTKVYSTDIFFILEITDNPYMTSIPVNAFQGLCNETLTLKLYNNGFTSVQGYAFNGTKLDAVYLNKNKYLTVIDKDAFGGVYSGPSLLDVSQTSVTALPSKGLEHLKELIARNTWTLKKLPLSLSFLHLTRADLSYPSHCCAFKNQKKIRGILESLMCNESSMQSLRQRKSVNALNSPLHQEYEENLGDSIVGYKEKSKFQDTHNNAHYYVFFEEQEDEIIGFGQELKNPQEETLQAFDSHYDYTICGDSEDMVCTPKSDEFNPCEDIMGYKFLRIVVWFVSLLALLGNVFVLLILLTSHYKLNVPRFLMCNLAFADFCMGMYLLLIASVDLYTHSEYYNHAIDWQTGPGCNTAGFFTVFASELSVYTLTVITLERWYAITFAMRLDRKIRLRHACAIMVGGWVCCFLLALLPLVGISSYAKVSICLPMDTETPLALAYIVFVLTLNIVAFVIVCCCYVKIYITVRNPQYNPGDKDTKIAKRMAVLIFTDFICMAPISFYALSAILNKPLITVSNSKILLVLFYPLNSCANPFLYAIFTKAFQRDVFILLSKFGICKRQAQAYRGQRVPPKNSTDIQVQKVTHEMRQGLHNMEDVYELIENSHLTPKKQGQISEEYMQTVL
#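 cAMP rise detected as CNG-channel membrane depolarization by fluorescent dye (emission 590 nm), 30 min after compound, following 60 min dye loading containing 100 uM RO 20-1724 at room temperature. Cells: TSHR/CNG HEK 293, with parental CNG HEK 293 as control.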
# Resorufin autofl: qHTS Assay for Spectroscopic Profiling in Resorufin Spectral Region; Compound fluorescence, resorufin region 547/598 nm, buffer; active compounds read high; max dye-equivalent concentration, M; 0.04% of 59,000 active; active = above 10 nM dye equivalent; inconclusive = 1 to 10 nM; inactive = 1 nM or less; a few of its hits are not listed in these tables; further: highest value over a series up to 38 µM
#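 Tris 100 mM pH 8.0; compound added, 15 min RT; CCD imager read, ex 547 nm/em 598 nm; signal normalized to resorufin standard curve (six concentrations per plate) as dye-equivalent concentration.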
# A647 autofl: qHTS Assay for Spectroscopic Profiling in A647 Spectral Region; Compound fluorescence, A647 channel (570/671 nm), Tris buffer; max dye-equivalent concentration, M; 59,000 tested, under 10 active; active means above 1 µM dye equivalent; inconclusive means 0.1 to 1 µM; inactive means 0.1 µM or less;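 further: values scaled relative to a standard on each plate; highest value over a series up to 38 µM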
#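 Each compound's intrinsic fluorescence at 570 nm excitation and 671 nm emission is measured across its concentration series in 100 mM Tris, pH 8.0, after 15 min at room temperature, and reported relative to an A647 curve.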
# A488 fluor: qHTS Assay for Spectroscopic Profiling in A488 Spectral Region; compound autofluorescence, A488 spectral region, dye equivalency; active compounds read high; max dye equivalency, M; 0.1% of 59,000 active; AID 591, 2007; active = above 10 nM dye equivalent; inconclusive = 1 to 10 nM; inactive = 1 nM or less; about half of its hits are not listed in these tables;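 further: highest value over a series up to 38 µM; compound alone in buffer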
#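 Autofluorescence read at ex 480/em 540 nm after 15 min RT in 100 mM Tris pH 8.0; compound signal normalized to A488 standard series on each plate, reported as dye-equivalent concentration at each test concentration.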
# AID923: qHTS Assay for Allosteric/Competitive Inhibitors of Caspase-1: Spectroscopic Profiling in AFC Spectral Region; Potency, µM (top dose mostly 57.5 µM), for the others: top-dose fluorescence increase, actives largely listed as activators; compound fluorescence, AFC spectral region (405/520 nm); almost no hit is shown here; AID 923, 2007; 1.1% of 75,000 active; active means well fitted activation curve with a large enough effect; inconclusive means small, poorly fitted or top-dose-only effect;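 further: potency means the concentration at half of the fitted maximal effect; 0% is about no effect; scaled to a free AFC standard on each plate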
#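 Baseline compound fluorescence (AFC region, 405 nm ex/520 nm em) taken from the intercept of kinetic reads with 50 nM caspase-1 and 5 uM Ac-WEHD-AFC; normalized to an on-plate AFC standard curve; compounds titrated up to 57 uM.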
# * marks the source's active call; other numbers are inactive results; i = inactive; ? = inconclusive; . = not tested or not shown; [ ] = remark or other dose. Not all compounds are listed, so the mix of outcomes need not match the whole.
structure	TSHR agonist	Resorufin autofl	A647 autofl	A488 fluor	AID923
O=C(NCCN1CCOCC1)c1noc2c1CCc1ccccc1-2	?	i	2.7e-08	i	0.1%
O=C(c1cccc(Cl)c1)N(Cc1cccs1)C1CCS(=O)(=O)C1 (stereo not drawn)	4%	i	1e-09	i	1.1%
Cc1cc2nc(SC(C)C(=O)O)[nH]c2cc1C (stereo not drawn)	1%	i	3.5e-08	i	0.7%
N#CCC(=O)N1CCn2c1nc1ccccc12	-2%	i	2.1e-09	i	-0.2%
COc1cc2[nH]c(=S)n(NC(=O)CC(C)C)c(=O)c2cc1OC	-1%	i	1e-08	i	-2.5%
COc1ccc(-c2noc(-c3ccccc3C(=O)Nc3cccnc3)n2)cc1	?	i	4.5e-09	i	1.3%
Cn1c(=O)oc2cc(S(=O)(=O)NCCC(=O)NC3CCCc4ccccc43)ccc21 (stereo not drawn)	-2%	i	2.5e-08	i	-2.0%
Cc1ccc(OCCC(=O)OCC(=O)Nc2ccc(Cl)cn2)cc1	0%	i	4e-08	i	1.9%
CCn1c(Cc2ccccc2)nnc1SCC(=O)Nc1nc(C)c(C)s1	17%	i	1e-09	i	1.9%
O=C(c1ccco1)N1CCN(C(c2ccccn2)c2nnnn2C2CCCC2)CC1 (stereo not drawn)	1%	i	1e-09	i	1.3%
CN1CCN(CC(=O)Nc2sc3c(c2C#N)CCC(C(C)(C)C)C3)CC1 (stereo not drawn)	10%	i	1e-09	i	-0.8%
CCCC(=O)Nc1cccc(C(=O)Nc2nccs2)c1	-2%	.	.	.	4.8%
O=C(NC1(C(F)(F)F)C(=O)Nc2c1c(=O)[nH]c(=O)n2-c1ccccc1)c1cccnc1 (stereo not drawn)	.	i	3.4e-08	i	.
COc1cccc(NC(=O)c2ccccc2-c2nc(-c3ccc(F)cc3)no2)c1	?	i	2.7e-08	i	0.7%
CCc1c(O)c2c(c(O)c1C(C)=O)C(=O)c1c(cc(O)c(C(=O)O)c1C(=O)O)C2=O	-4%[11.4 µM]	i	1.4e-08	i	0.1%[11.5 µM]
O=S(=O)(Nc1nc(CN2CCOCC2)nc2sc3c(c12)CCCC3)c1cc(F)ccc1F	5%	i	1.4e-08	i	3.7%
CC(NC(=O)CC(O)(C(F)(F)F)C(F)(F)F)c1ccccc1 (stereo not drawn)	30%	i	1e-09	i	2.0%
CCCc1ccc(C(C)NC(=O)c2cnccn2)cc1 (stereo not drawn)	-2%	i	1e-09	i	0.5%
Cn1c(=O)oc2cc(S(=O)(=O)N3CCCC3)ccc21	?	.	.	.	-1.0%
COC(=O)c1cc(OC)c(OC)cc1NC(=O)CCCCCN1C(=O)CCC1=O	7%	i	1e-09	i	-1.5%
CC(C)CC(c1nnnn1C(C)(C)C)N1CCN(C2CCCC2)CC1 (stereo not drawn)	?	i	1e-09	i	0.3%
O=C(c1ccc(-c2ccccc2)cc1)N1CCN(c2ncccn2)CC1	?	i	1.4e-08	i	-1.1%
NC(=O)c1c(-c2ccccc2)oc2ccc(O)cc12	11%	i	7.2e-09	i	1.0%
COc1cccc2cc(C(C)=O)c(=O)oc12	-4%	i	7.8e-09	i	0.7%
CCn1cc(C(=O)Nc2ccc(NC(=O)c3ccco3)cc2)c(=O)c2ccc(C)nc21	1%[11.4 µM]	i	2.7e-09	i	0.0%
COc1ccccc1S(=O)(=O)Cc1ccc(C(=O)N2CCN(c3ccccn3)CC2)o1	5%	.	.	.	-0.8%
CSCC[C@H](NC(=O)OC(C)(C)C)c1nnc(SCc2ccc(F)cc2)o1	?	i	3.2e-09	i	-1.4%
CCOc1ccccc1NC(=O)N1CCC(NC(=O)c2ccccc2C)CC1	5%	i	2.8e-08	i	1.7%
O=C(c1cccs1)N1CCN(C(=O)N2CCOCC2)CC1	-1%	i	9.6e-09	i	0.1%
O=C(CSc1nc(-c2ccco2)cc(C(F)(F)F)n1)NCCc1ccccc1	?	i	1e-09	i	0.4%
Cc1cc(C)c2oc(-c3ccc(Cl)c(NC(=O)c4ccc(C#N)cc4F)c3)nc2c1	0%	i	1.1e-08	i	0.4%
COc1cccc(CNn2c(-c3cccc(C)c3)nc3ccccc3c2=O)c1O	.	i	1.9e-08	i	-2.3%
COc1ccc(N(CC(=O)N2c3ccccc3CC2C)S(=O)(=O)c2c(C)nn(C)c2C)cc1 (stereo not drawn)	2%	.	.	.	-1.2%
COCCNc1nc(-c2ccccc2CN(C)C)nc2ccccc12	?	i	7.1e-09	i	-1.7%
COc1ccccc1CNc1ccnc(-c2ccc(C(=O)N(C)C)cc2)n1	.	i	1e-09	i	0.6%
O=C(NCC1CCCO1)C1CC(=O)N(C2CCCCCC2)C1 (stereo not drawn)	2%	i	1e-09	i	0.4%
Cc1cc(C(=O)CSc2nnc(Cc3ccccc3)o2)c(C)n1Cc1ccc2c(c1)OCO2	?	i	3.5e-08	i	0.1%
COc1ccc(CNc2cc(-c3ccccc3Cl)ncn2)c(OC)c1	?	i	3.3e-08	i	1.6%
C#CCN1C(=O)C(O)(CC(=O)c2ccc(OC)c(OC)c2)c2ccccc21 (stereo not drawn)	6%	.	.	.	-0.1%
NCC12CC3CC(C1)CC(CN)(C3)C2	-9%	i	4e-09	i	0.3%
CCCOc1ccc(C(=O)N2CCCC2C(=O)O)cc1 (stereo not drawn)	-3%	i	1e-09	i	-0.2%
Cc1nc(CNS(=O)(=O)c2ccc(Oc3ccccc3)cc2)cs1	25%[11.4 µM]	i	1e-09	i	0.8%
O=S(=O)(Nc1cccnc1)c1cccs1	?	i	1.6e-08	i	-0.6%
CCOC(=O)Cn1cc(C(=O)c2cccs2)c2ccccc21	.	i	1e-09	i	-0.5%
COc1cc(/C=C(/C#N)c2ccc(F)cc2)ccc1OCc1ccc(C(=O)O)o1	-3%	i	2.2e-09	i	-2.2%
O=C(NCCc1c[nH]c2ccccc12)c1cnc2sccn2c1=O	-1%[11.4 µM]	.	.	.	0.0%
COc1ccc(C2c3c(-c4ccccc4O)n[nH]c3C(=O)N2CCc2ccc(OC)c(OC)c2)cc1 (stereo not drawn)	.	i	1.5e-09	i	1.2%
O=C(COc1ccc(S(=O)(=O)N2CCOCC2)cc1)Nc1ccc2c(c1)OCCO2	2%	i	1e-09	i	-1.0%
O=C(COc1cccc(Oc2ccccc2)c1)Nc1ncccn1	3%	i	5.2e-09	i	-1.0%
COc1cc(C(C)=O)ccc1OCC(O)CNCC1(N2CCCCC2)CCCCC1 (stereo not drawn)	3%	i	1e-09	i	-1.7%
COC(=O)c1ccccc1Nc1cc(C)nc2nc(C)nn12	6%	.	.	.	-2.6%
COc1ccc(NS(=O)(=O)c2ccc(OC)c3ccccc23)cn1	?	i	2.1e-09	i	-0.6%
COc1cc(OC)c2c(c1)OC(c1ccc(OC)c(OC)c1)C(O)C2=O (stereo not drawn)	17%	.	.	.	2.0%
COc1ccc(OC)c(N=CC2=C(O)CC(C)(C)CC2=O)c1	3%	.	.	.	-1.4%
CC(C)C(OC(=O)C1CCCO1)C(=O)NC1CCCC1 (stereo not drawn)	?	i	1e-09	i	-0.3%
CC(=O)Nc1ccc(S(=O)(=O)Nc2ccc(N3CCOCC3)c(F)c2)cc1	-9%	i	8.9e-09	i	1.0%
O=S(=O)(c1cccc(-c2csc(-c3ccccc3)n2)c1)N1CCOCC1	.	i	1e-09	i	.
Cc1ccc(S(=O)(=O)N2CCCC(c3nnc4n3-c3ccccc3SC4)C2)cc1 (stereo not drawn)	17%	i	1e-09	i	-0.7%
COC(=O)C(CC(C)C)NC(=O)CSc1nc(-c2ccccc2)c(C#N)c(=O)[nH]1 (stereo not drawn)	7%	i	5.5e-09	i	-0.9%
CCOc1ccccc1C(=O)NC1CC2CCCC(C1)N2Cc1nnnn1Cc1ccco1 (stereo not drawn)	11%	i	2.8e-09	i	0.4%

# The listing continues:
structure	TSHR agonist	Resorufin autofl	A647 autofl	A488 fluor	AID923
COc1ccccc1C(=O)N1CCN(CCc2ccccc2)CC1	-7%	i	1e-09	i	1.3%
Cc1ccsc1C(=O)OC1CCOC1=O (stereo not drawn)	2%	i	9.9e-09	i	-1.3%
COc1ccc(NC(C)=O)cc1NC(=O)CSc1nnc(-c2ccc(F)cc2)n1N	2%	i	1e-09	i	-0.6%
COc1ccc(NC(=O)N2CCCC3(CCN(C(=O)c4c(C)noc4C)CC3)C2)cc1	7%	i	1.6e-08	i	0.4%
Cc1ccc(CNc2oc(COc3ccccc3Cl)nc2C#N)cc1	.	i	1e-08	i	.
c1ccc(-c2ccccc2-c2nc(-c3ccncc3)no2)cc1	.	i	4.1e-08	i	2.2%
CC1CCC(O)([C@](C)(C(=O)O)c2ccccc2)CC1 (stereo partly drawn)	-6%[11.4 µM]	i	1e-09	i	-0.6%[11.5 µM]
Cc1ccc(C)c(C(=O)NCCN(C)C)c1	4%	i	1e-09	i	-0.9%
CCOC(=O)c1c(CN2CCC(C)CC2)oc2ccc(OC)cc12	?	i	3.6e-08	i	-0.3%
CNc1nc(-c2ccccc2C(F)(F)F)nc2ccccc12	5%	i	1.6e-08	i	-2.2%
CC(=O)c1c(COC(=O)c2ccco2)nc2ccccc2[n+]1[O-]	.	i	1e-09	i	-0.2%
CCOC(=O)c1ccc(N2C(=O)C(O)=C(C(C)=O)C2c2ccccn2)cc1 (stereo not drawn)	12%	i	3.7e-08	i	-0.4%
O=C(Cn1c(=O)oc2ccccc21)NC(=O)NCc1ccco1	7%	i	1.1e-08	i	-0.1%
CCOc1ccc(-c2nnc(N)s2)cc1	-5%	.	.	.	-1.7%
Nc1ccc(Cl)c(NC(=O)c2cccs2)c1	0%	i	4.9e-08	i	-0.2%
CNC(=O)c1c(I)c(C(=O)NCC(=O)Nc2c(I)c(C(=O)O)c(I)c(C(=O)NCCO)c2I)c(I)c(N(C)C(C)=O)c1I	20%[25.6 µM]	i	2.1e-09	i	0.7%[25.7 µM]
Cc1cc(=O)n2[nH]c(-c3ccccc3Cl)cc2n1	6%	i	4.1e-09	i	0.1%
O=C(c1cnccn1)N1CCC2(CCN(Cc3ccncc3)CC2)CC1	3%	i	2e-08	i	1.9%
CCNc1nc(N)nc(Oc2ccc(OCCOc3ccccc3)nn2)n1	9%	i	1e-09	i	1.0%
NC(Cc1ccc(Oc2ccc(O)cc2)cc1)C(=O)O (stereo not drawn)	.	i	1e-09	i	.
Cc1ccc(NC(=O)COc2nc(C)cs2)cc1	-2%[11.4 µM]	i	2.6e-08	i	0.5%
CCOC(=O)c1ccc(NS(=O)(=O)c2cc(C)ccc2OC)cc1	13%	i	4.2e-09	i	-0.8%

# Of the compounds above, these have a tert-butyl group:
structure	TSHR agonist	Resorufin autofl	A647 autofl	A488 fluor	AID923
CN1CCN(CC(=O)Nc2sc3c(c2C#N)CCC(C(C)(C)C)C3)CC1 (stereo not drawn)	10%	i	1e-09	i	-0.8%
CC(C)CC(c1nnnn1C(C)(C)C)N1CCN(C2CCCC2)CC1 (stereo not drawn)	?	i	1e-09	i	0.3%
CSCC[C@H](NC(=O)OC(C)(C)C)c1nnc(SCc2ccc(F)cc2)o1	?	i	3.2e-09	i	-1.4%
